# Bioassay records (PubChem BioAssay)
# MLL AF4-AF9 inh: inhibitors of AF4 peptide binding to AF9, primary screen, biochemical, AlphaScreen, biotin-AF4 peptide, FLAG-AF9, single point; Protein AF-9 (Homo sapiens), P42568; inhibition, % at 10 µM; 0.47% of 350,000 active; AID 651704, 2012;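 active = every replicate reaching a set inhibition limit, whatever the replicate mean, cut at about 25% in these data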;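 note: 0% = plate neutral control median and 100% = total signal loss; the record names both 10 and 1 µM as test concentration; the first replicate is given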
# Target sequence (P42568 whole entry, looked up): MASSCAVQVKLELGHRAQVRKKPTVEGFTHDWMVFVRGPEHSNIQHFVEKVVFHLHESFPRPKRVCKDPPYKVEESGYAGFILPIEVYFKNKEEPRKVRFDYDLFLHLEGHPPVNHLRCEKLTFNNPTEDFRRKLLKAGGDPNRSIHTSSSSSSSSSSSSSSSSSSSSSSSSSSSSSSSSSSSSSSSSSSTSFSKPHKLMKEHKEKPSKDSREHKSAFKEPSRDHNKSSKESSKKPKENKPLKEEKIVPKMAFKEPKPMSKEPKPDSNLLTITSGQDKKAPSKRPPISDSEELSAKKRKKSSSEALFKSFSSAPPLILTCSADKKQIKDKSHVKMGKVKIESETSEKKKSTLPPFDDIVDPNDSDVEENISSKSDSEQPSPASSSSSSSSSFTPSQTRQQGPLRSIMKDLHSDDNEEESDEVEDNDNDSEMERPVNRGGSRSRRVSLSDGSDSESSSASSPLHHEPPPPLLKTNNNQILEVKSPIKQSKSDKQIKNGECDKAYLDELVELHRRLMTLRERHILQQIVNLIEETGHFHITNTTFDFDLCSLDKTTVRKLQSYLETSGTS
# FGF22 binding: binders of human FGF22 protein, primary screen, FGF22 synaptogenesis inhibitor project, biophysical, thermal shift, single point | Fibroblast growth factor 22 (Homo sapiens), Q9HCT0 | recombinant FGF22 thermal shift, SYPRO orange fluorescence; percent of sucrose octasulfate shift, DMSO zero | calls only at 9.99 µM | 1.5% of 340,000 active | AID 651658, 2012;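 active = melting point raised past a set limit in the mean and every replicate; three in four hits are not shown here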
# Target sequence (Q9HCT0 whole entry, looked up): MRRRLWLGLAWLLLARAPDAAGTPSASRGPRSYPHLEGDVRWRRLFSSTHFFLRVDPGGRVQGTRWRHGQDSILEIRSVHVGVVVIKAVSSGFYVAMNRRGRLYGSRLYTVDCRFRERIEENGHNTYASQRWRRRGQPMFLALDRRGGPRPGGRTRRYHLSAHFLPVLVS
# * = called active by the depositor; i = inactive. These rows are one share of the data; the hit share may differ from the screen's.
SMILES,MLL AF4-AF9 inh,FGF22 binding
COCC(=O)N1CCCCN2[C@H](C1)[C@H](c1ccc(C#Cc3ccccc3)cc1)[C@@H]2CO,3.7,i
Cc1noc(C)c1S(=O)(=O)N(C)C[C@H]1OCCCC[C@@H](C)Oc2ccc(NS(=O)(=O)c3cccs3)cc2C(=O)N([C@@H](C)CO)C[C@@H]1C,3.1,i
Cn1cnc(S(=O)(=O)N2C[C@H](O)COC[C@@H]3O[C@@H](CC(=O)NC4CCCC4)CC[C@H]32)c1,4.5,i
C[C@@H]1CCCCO[C@H](CN(C)C(=O)Nc2ccc(C(F)(F)F)cc2)[C@H](C)CN([C@H](C)CO)C(=O)c2cc(NC(=O)c3ccccc3)ccc2O1,-12,i
C[C@H](CO)N1C[C@H](C)[C@H](CN(C)S(=O)(=O)c2ccccc2F)Oc2cc(-c3ccncc3)ccc2S1(=O)=O,3.0,i
CC(C)(C)[S@](=O)N1Cc2cc(C(=O)N3CCc4ccccc4C3)nc(-c3cccc(-c4ccncc4)c3)c2[C@@H]1CCO,-0.5,i
CO[C@@H]1CN(C)C(=O)c2ccc(NS(C)(=O)=O)cc2OC[C@@H](C)N(CC2CCOCC2)C[C@H]1C,-0.9,i
Cc1noc(C)c1S(=O)(=O)Nc1cccc2c1O[C@H](CN(C)C)[C@H](C)CN([C@H](C)CO)C2=O,-0.7,i
C[C@@H]1CCCCO[C@H](CN(C)Cc2ccc3c(c2)OCO3)[C@H](C)CN([C@H](C)CO)C(=O)c2cc(NC(=O)Nc3ccc(F)cc3)ccc2O1,11,i
CC(=O)N(C)C[C@@H]1Oc2ncc(C#C[C@H](C)O)cc2C(=O)N([C@H](C)CO)C[C@H]1C,-4.3,i
CO[C@@H]1CN(C)C(=O)c2ccc(NS(=O)(=O)c3ccccc3)cc2OC[C@H](C)N(Cc2nccs2)C[C@H]1C,2.1,i
COCC#Cc1ccc2c(c1)O[C@@H](CN(C)C(=O)c1ccccc1)[C@@H](C)CN([C@@H](C)CO)S2(=O)=O,1.1,i
C[C@@H]1CN([C@@H](C)CO)C(=O)c2cc(NS(=O)(=O)c3ccccc3)ccc2O[C@@H](C)CCCCO[C@H]1CN(C)S(=O)(=O)c1cn(C)cn1,-0.4,i
COC(=O)C[C@H]1CC[C@@H]2[C@H](COc3ccc(NC(=O)Nc4ccc(C)cc4)cc3C(=O)N2C)O1,-0.4,i
C[C@H]1CN([C@@H](C)CO)C(=O)c2cc(NC(=O)Nc3ccc(C(F)(F)F)cc3)ccc2O[C@H]1CN(C)Cc1ccc(C(=O)Nc2ccccc2N)cc1,-3.8,i
C[C@@H]1CN([C@@H](C)CO)C(=O)Cc2cc(NC(=O)CCN3CCOCC3)ccc2O[C@H]1CN(C)C(=O)Nc1ccc(C(F)(F)F)cc1,3.9,i
C[C@@H]1CCCCO[C@H](CN(C)C(=O)Nc2ccc(C(F)(F)F)cc2)[C@H](C)CN([C@@H](C)CO)C(=O)c2cc(NC(=O)Nc3ccccc3)ccc2O1,-3.6,i
CCC(=O)Nc1ccc2c(c1)C(=O)N(C)C[C@H](OC)[C@H](C)CN(CC1CC1)[C@@H](C)CO2,-1.3,i
C[C@@H]1CN([C@H](C)CO)C(=O)c2cc(NS(=O)(=O)c3ccccc3)ccc2O[C@@H]1CN(C)S(=O)(=O)c1cccs1,2.7,i
CO[C@@H]1CN(C)C(=O)c2ccc(NS(C)(=O)=O)cc2OC[C@@H](C)N(CC2CCCCC2)C[C@@H]1C,-2.4,i
CCCNC(=O)N1[C@H](CO)[C@H](c2ccccc2C2=CCCC2)[C@@H]1C#N,-10,i
COc1ccc(S(=O)(=O)Nc2ccc3c(c2)C(=O)N([C@H](C)CO)C[C@@H](C)[C@@H](CN(C)S(=O)(=O)c2cn(C)cn2)O3)cc1,-2.1,i
C[C@@H]1CN([C@@H](C)CO)C(=O)c2c(c3ccccc3n2C)-c2ccccc2CO[C@H]1CN(C)C(=O)Nc1ccc2c(c1)OCO2,7.2,i
COc1ccc(C#Cc2cnc3c(c2)C(=O)N([C@H](C)CO)C[C@H](C)[C@H](CN(C)S(=O)(=O)c2cn(C)cn2)O3)cc1OC,-0.9,i
CCN(C[C@@H]1N[C@@H](CO)[C@@H]1c1ccc(C2=CCCC2)cc1)C(=O)c1cccnc1,7.8,i
Cc1ccc(S(=O)(=O)Nc2cccc3c2O[C@H](CN(C)C(=O)NC(C)C)[C@@H](C)CN([C@H](C)CO)C3=O)cc1,-2.8,i
C[C@H](CO)N1C[C@H](C)[C@@H](CN(C)Cc2ccc(C(=O)O)cc2)Oc2ccc(NC(=O)Nc3ccc(C(F)(F)F)cc3)cc2C1=O,-1.8,i
COc1ccccc1S(=O)(=O)N[C@@H]1CC[C@H](CCNC(=O)C2CCC2)O[C@H]1CO,-13,i
CCCC(=O)Nc1ccc2c(c1)C(=O)N(C)[C@@H]1CC[C@@H](CC(=O)Nc3ccccc3)O[C@H]1CO2,-5.0,i
CN1CCN(C(=O)C[C@H]2C[C@@H]3c4cc(NC(=O)NC5CCCCC5)ccc4O[C@@H]3[C@@H](CO)O2)CC1,0.4,i
CO[C@H](CN(C)S(=O)(=O)c1ccc(F)cc1)[C@@H](C)CN(Cc1ccccc1Cl)[C@@H](C)CO,3.3,i
C[C@@H]1CN([C@@H](C)CO)C(=O)c2cc(NC(=O)NC3CCCCC3)ccc2O[C@@H]1CN(C)Cc1ccc(Oc2ccccc2)cc1,1.1,i
C[C@@H]1CN([C@H](C)CO)C(=O)c2cc(NS(=O)(=O)c3cccs3)ccc2O[C@@H]1CN(C)CC1CC1,-0.9,i
COc1ccc(NC(=O)N(C)C[C@H]2Oc3c(NC(=O)C4CC4)cccc3C(=O)N([C@@H](C)CO)C[C@@H]2C)cc1,-1.3,i
CO[C@H]1CN(C)C(=O)c2ccc(NS(C)(=O)=O)cc2OC[C@@H](C)N(C)C[C@@H]1C,-1.2,i
COc1cccc(S(=O)(=O)N[C@H]2CC[C@@H](CCn3cc(-c4ccccc4)nn3)O[C@H]2CO)c1,-1.4,i
C[C@H](CO)N1C[C@H](C)[C@H](CN(C)S(=O)(=O)c2ccc(Cl)cc2)Oc2ccc(NC(=O)Nc3ccc(C(F)(F)F)cc3)cc2CC1=O,-1.0,i
O=C(CN1CCOCC1)NCC[C@@H]1CC[C@H](NC(=O)Nc2ccccc2)[C@H](CO)O1,-1.8,i
COc1ccc(S(=O)(=O)Nc2cccc3c2O[C@H](CN(C)S(=O)(=O)c2ccc(F)cc2)[C@H](C)CN([C@@H](C)CO)C3=O)cc1,-24,i
CN(C)CCCNC(=O)C[C@@H]1CC[C@H]2[C@H](COc3ccc(NC(=O)C4CCC4)cc3C(=O)N2C)O1,-1.8,i
O=S(=O)(c1ccccc1)N1CCCCN2[C@@H](CO)[C@@H](c3ccc(-c4cncnc4)cc3)[C@@H]2C1,-2.7,i
CCCNC(=O)N(C)C[C@H]1Oc2ncc(C#CC3(O)CCCC3)cc2C(=O)N([C@@H](C)CO)C[C@H]1C,-1.6,i
O=C(c1ccc(F)cc1)N1C[C@H]2[C@@H](c3ccccc31)[C@@H](CO)N2C(=O)c1ccc(F)cc1,0.3,i
Cc1noc(C)c1NC(=O)Nc1ccc2c(c1)CC(=O)N([C@H](C)CO)C[C@@H](C)[C@@H](CN(C)Cc1ccncc1)O2,-2.0,i
C/C=C/c1ccc([C@@H]2[C@@H](CO)N(C(C)=O)[C@H]2CNC(=O)c2ccncc2)cc1,1.1,i
Cc1noc(C)c1S(=O)(=O)N(C)C[C@H]1OCCCC[C@@H](C)Oc2ccc(NC(=O)C3CCCCC3)cc2C(=O)N([C@@H](C)CO)C[C@H]1C,2.2,i
O=C(c1cccnc1)N1C[C@@H]2[C@H](c3ccccc31)[C@@H](CO)N2CC1CCCC1,-2.5,i
CCCNC(=O)Nc1ccc2c(c1)C(=O)N(C)C[C@@H](OC)[C@@H](C)CN(C(C)=O)[C@H](C)CO2,0.2,i
CN1c2ccc(-c3cccc(F)c3)cc2[C@@H]2[C@@H](CCN2C(=O)C2CC2)[C@H]1CO,-15,i
CCCC#Cc1ccc([C@H]2[C@H](C#N)N(C(=O)CN3CCOCC3)[C@H]2CO)cc1,0.4,i
CC(=O)N(C)C[C@H]1Oc2cc(C#Cc3ccncc3)ccc2S(=O)(=O)N([C@H](C)CO)C[C@H]1C,-5.7,i
CCCNC(=O)N(C)C[C@H]1Oc2cc(C#CC(C)C)ccc2S(=O)(=O)N([C@H](C)CO)C[C@H]1C,-0.8,i
Cc1noc(C)c1NC(=O)N[C@@H]1CC[C@H](CCNC(=O)C2CC2)O[C@H]1CO,-2.1,i
CCN1[C@H](C(=O)NC2CCC2)[C@@H](CO)[C@@H]2Cn3c(ccc(-c4ccc(OC)cc4)c3=O)[C@@H]21,1.7,i
C[C@@H]1CN([C@@H](C)CO)C(=O)Cc2cc(NC(=O)Nc3ccc(C(F)(F)F)cc3)ccc2O[C@@H]1CN(C)Cc1ccc(C(=O)Nc2ccccc2N)cc1,-7.7,i
CCC(=O)N[C@H]1C=C[C@@H](CC(=O)OC)O[C@@H]1CO,0.4,i
Cc1noc(C)c1S(=O)(=O)Nc1cccc2c1O[C@@H](CN(C)S(=O)(=O)c1ccc(F)cc1)[C@@H](C)CN([C@H](C)CO)C2=O,1.2,i
Cc1noc(C)c1NC(=O)N(C)C[C@@H]1Oc2ccc(NC(=O)Nc3ccc(F)cc3)cc2CC(=O)N([C@H](C)CO)C[C@@H]1C,-1.9,i
CN(C)c1ccc2c(c1)[C@H]1C[C@@H](CC(=O)NCc3ccc(Oc4ccccc4)cc3)O[C@@H](CO)[C@H]1O2,17,i
C[C@@H]1CN([C@@H](C)CO)C(=O)c2cccc(NC(=O)Nc3ccccc3)c2O[C@H]1CN(C)S(=O)(=O)c1ccccc1,-1.3,i

# Brought forward from above: six compounds, then new ones.
SMILES,MLL AF4-AF9 inh,FGF22 binding
C[C@@H]1CN([C@@H](C)CO)C(=O)Cc2cc(NC(=O)Nc3ccc(C(F)(F)F)cc3)ccc2O[C@@H]1CN(C)Cc1ccc(C(=O)Nc2ccccc2N)cc1,-7.7,i
CCC(=O)N[C@H]1C=C[C@@H](CC(=O)OC)O[C@@H]1CO,0.4,i
Cc1noc(C)c1S(=O)(=O)Nc1cccc2c1O[C@@H](CN(C)S(=O)(=O)c1ccc(F)cc1)[C@@H](C)CN([C@H](C)CO)C2=O,1.2,i
Cc1noc(C)c1NC(=O)N(C)C[C@@H]1Oc2ccc(NC(=O)Nc3ccc(F)cc3)cc2CC(=O)N([C@H](C)CO)C[C@@H]1C,-1.9,i
CN(C)c1ccc2c(c1)[C@H]1C[C@@H](CC(=O)NCc3ccc(Oc4ccccc4)cc3)O[C@@H](CO)[C@H]1O2,17,i
C[C@@H]1CN([C@@H](C)CO)C(=O)c2cccc(NC(=O)Nc3ccccc3)c2O[C@H]1CN(C)S(=O)(=O)c1ccccc1,-1.3,i
C[C@@H]1CN([C@H](C)CO)C(=O)c2cccc(NC(=O)C3CC3)c2O[C@H]1CN(C)S(C)(=O)=O,-1.9,i
COc1ccc(CN(C)C[C@@H]2OCCCC[C@@H](C)Oc3ccc(NS(=O)(=O)c4ccccc4)cc3C(=O)N([C@@H](C)CO)C[C@H]2C)cc1,1.1,i
CO[C@H]1CN(C)C(=O)c2ccc(NC(=O)C3CC3)cc2OC[C@@H](C)N(C(=O)Cc2ccccn2)C[C@H]1C,0.4,i
COc1ccc(S(=O)(=O)N2C[C@H](O)COC[C@H]3O[C@@H](CC(=O)NCCCN4CCOCC4)CC[C@@H]32)cc1,-3.5,i
C/C=C/c1cnc2c(c1)C(=O)N([C@H](C)CO)C[C@H](C)[C@H](CN(C)C(=O)Nc1c(C)noc1C)O2,0.0,i
C/C=C/c1cnc2c(c1)C(=O)N([C@@H](C)CO)C[C@@H](C)[C@H](CN(C)C(=O)c1ccc3c(c1)OCO3)O2,-2.1,i
COc1ccccc1CN1[C@H](CO)[C@H](c2ccccc2)C12CN(C(C)=O)C2,-0.1,i
Cc1noc(C)c1S(=O)(=O)N(C)C[C@H]1OCCCC[C@@H](C)Oc2ccc(NS(=O)(=O)c3ccccc3)cc2C(=O)N([C@H](C)CO)C[C@@H]1C,-8.3,i
CCN1[C@@H]2c3ccc(-c4ccncc4)c(=O)n3C[C@H]1[C@H](CO)[C@H]2C(=O)Nc1ccccc1,-11,i
C[C@H](CO)N1C[C@H](C)[C@H](CN(C)Cc2ccccc2)Oc2ncc(C#Cc3ccc(F)cc3)cc2C1=O,6.2,i
C[C@@H]1CN([C@H](C)CO)C(=O)c2cc(NC(=O)Nc3ccccc3)ccc2O[C@@H]1CN(C)Cc1ccc(C(F)(F)F)cc1,1.3,i
COCC(=O)Nc1ccc2c(c1)C(=O)N(C)C[C@H](OC)[C@@H](C)CN(C(=O)c1ccncc1)[C@H](C)CO2,1.7,i
C[C@H](CO)N1C[C@H](C)[C@@H](CN(C)S(=O)(=O)c2ccccc2)OCCCC[C@H](C)Oc2ccc(NC(=O)c3ccncc3)cc2C1=O,1.4,i
Cc1ccc(S(=O)(=O)N(C)C[C@H]2OCCCC[C@@H](C)Oc3ccc(NC(=O)Nc4ccc(F)cc4)cc3C(=O)N([C@H](C)CO)C[C@@H]2C)cc1,-0.5,i
O=C([C@@H]1N[C@@H]2c3ccc(-c4ccc(F)cc4)c(=O)n3C[C@@H]2[C@H]1CO)N1CCc2ccccc2C1,-12,i

# 3 compounds already listed, arranged by their value in MLL AF4-AF9 inh, ascending.
mol	MLL AF4-AF9 inh
COc1ccc(S(=O)(=O)N2C[C@H](O)COC[C@H]3O[C@@H](CC(=O)NCCCN4CCOCC4)CC[C@@H]32)cc1	-3.5
C/C=C/c1cnc2c(c1)C(=O)N([C@H](C)CO)C[C@H](C)[C@H](CN(C)C(=O)Nc1c(C)noc1C)O2	0.0
C[C@H](CO)N1C[C@H](C)[C@@H](CN(C)S(=O)(=O)c2ccccc2)OCCCC[C@H](C)Oc2ccc(NC(=O)c3ccncc3)cc2C1=O	1.4
